From PubChem
Prx2 Sm inh – blocks S. mansoni peroxiredoxin 2 enzymatic activity; AID 448; Potency, µM; S. mansoni Prx2 activity coupled to TGR/GSH (TGR is thioredoxin glutathione reductase), NADPH fluorescence loss, qHTS; some inactives read as strong as hits; hit rate 0.07% among 65,000; active means full or partial inhibition curve with a strong effect at the top dose; inconclusive means weaker partial or single-point curve; inactive means no accepted curve; note: series up to 57 µM; many of its hits are not listed in these tables
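Prx2 activity was followed as the loss of NADPH fluorescence (ex 365/em 450 nm), read every 30 sec for 8 min after H2O2 start. The enzyme mix (50 nM Prx2, 25 nM TGR, GSH, NADPH; pH 7.4 phosphate buffer) was incubated with compound for 15 min at room temperature first.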
LT uptake inh – blocks cellular internalization of anthrax lethal toxin; Potency, µM (doses to about 40 µM), for the others: top-dose activity change, negative = inhibition, actives largely listed as inhibitors; hit rate 0.67% among 70,000; Cells, anthrax lethal toxin internalization, FRET ratio (460/530); AID 912; active = well fitted falling ratio curve with the 530 nm signal flat; inconclusive = other ratio curves, or a change in one channel alone; inactive = flat curves in the ratio and both channels; the % refers to the ratio; note: % is set by controls: 0 for no effect and ±100 for the full control effect; nearly all actives have a fitted effect of over 50% in size; tested in ME-180 cells; beta-lactamase reporter
* hit, by the source's call; ? = inconclusive; nt = not tested or not shown; & = joins results of further samples; [ ] = dose if it differs, or a comment. Potency is the fitted concentration of half-maximal effect. Not all compounds are listed; count on the stated rates, not on these rows.

Sample of the layout:
item	structure	Prx2 Sm inh	LT uptake inh
1	CCN(Cc1ccccc1)S(=O)(=O)c1ccc(C(=O)Nc2nnc(-c3ccccc3OC)o2)cc1	>57	9%
2	Cn1c(N)c(C(=O)CSc2ccc3c(c2)OCCO3)c(=O)n(C)c1=O	>57	1%
3	COc1ccccc1NC(=O)CN1CCN(CC(=O)Nc2ccc(OCc3ccccc3)cc2)CC1	>57	?
4	O/N=C(/CN(O)/C=C1/C=CC=N1)c1cccs1	>57	nt
5	Cc1cc(-c2ccc(N3C(=O)CCC3=O)c(C)c2)ccc1N1C(=O)CCC1=O	>57	1%

Main list, from the start:
item	structure	Prx2 Sm inh	LT uptake inh
1	CCN(Cc1ccccc1)S(=O)(=O)c1ccc(C(=O)Nc2nnc(-c3ccccc3OC)o2)cc1	>57	9%
2	Cn1c(N)c(C(=O)CSc2ccc3c(c2)OCCO3)c(=O)n(C)c1=O	>57	1%
3	COc1ccccc1NC(=O)CN1CCN(CC(=O)Nc2ccc(OCc3ccccc3)cc2)CC1	>57	?
4	O/N=C(/CN(O)/C=C1/C=CC=N1)c1cccs1	>57	nt
5	Cc1cc(-c2ccc(N3C(=O)CCC3=O)c(C)c2)ccc1N1C(=O)CCC1=O	>57	1%
6	CCOC(=O)C1CCN(C(=O)Cn2cc3c(n2)CCC(C)C3)CC1 (centres undefined)	>57	19%
7	Cc1cc(S(=O)(=O)NCCN2CCOCC2)c(C)s1	>57	17%
8	O=C1c2ccccc2C(=O)N1CCCC(=O)N1CCc2ccccc21	nt	-5%
9	CCOC(=O)N1CCN(c2nc3c(c(=O)[nH]c(=O)n3C)n2Cc2ccccc2Cl)CC1	>57	?
10	CCCC(=O)N1CCN(c2ccc(NC(=O)c3ccc(Br)o3)cc2)CC1	>57	-4%
11	CCn1c(SCC(=O)Nc2cc(C)on2)nc2sc(C)c(C)c2c1=O	>57	3%
12	CC1(C)[C@@H](CC(=O)O)CCC[C@@H]1CC(=O)O	>57	3%[8 µM]
13	CCOC(=O)Cc1csc(Nc2c(C)n(C)n(-c3ccccc3)c2=O)n1	>57	-6%
14	CCOc1ccc2nc(NC(=O)COC)sc2c1	>57	6%
15	CC1=C(C(=O)N2CCCCC2)C2(CCC(C)CC2)OC1=O (centres undefined)	>57	-4%
16	CC(=O)NCCn1ccc2ccccc21	>57	13%
17	CCn1c(SCc2nnc(-c3ccccc3)o2)nnc1-c1ccc(S(=O)(=O)N2CCCC2)cc1	>57	?
18	CC(Sc1ccccn1)C(=O)Nc1ccccc1 (centres undefined)	>57	0%
19	CCCCn1c(SCn2nnc3ccccc3c2=O)nc2cc(C(=O)OC)ccc2c1=O	>57	7%
20	COc1ccc(C2C(C(=O)NCCN3CCOCC3)c3ccccc3C(=O)N2C)cc1OC (centres undefined)	>57	-6%
21	CCNc1nc(NC#N)nc(SCC(=O)OCC)n1	>57	-1%
22	Cc1nc(-c2cccc(N)c2)cs1	>57	10%
23	CCCc1cc(C(=O)Nc2sc3c(c2C#N)CCC3)no1	>57	?
24	Cn1c(SCCOc2ccc(Cl)cc2)nnc1-c1ccncc1	>57	-12%
25	O=C(c1cc(=O)c2ccccc2o1)N1CCCc2ccccc21	>57	6%

Additional entries follow.
item	structure	Prx2 Sm inh	LT uptake inh
26	COc1ccc(CCNC(=O)c2cnc3scc(C)n3c2=O)cc1OC	>57	-4%
27	Cc1ccc(-c2ccc(S(=O)(=O)N3CCN(C)CC3)cc2)cc1	>57	-1%
28	CCN(CC)CCCCn1c(-c2ccccc2)nc2c(Nc3ccccc3)nc(C)nc21	nt	16µM*
29	O=C1CC(N2CCCc3ccccc32)C(=O)N1c1ccccc1 (centres undefined)	nt	-15%
30	CC(=O)N1[C@H](Cc2ccccc2)C=C[C@]1(C)C(=O)NCc1ccc(C)o1	nt	-3%
31	O=C(c1ccc(S(=O)(=O)N2CCOCC2)cc1)N(c1ccc(F)cc1)C1C=CS(=O)(=O)C1 (centres undefined)	>57	-20%
32	CC(=O)c1coc2ccc(OCC(=O)O)cc12	>57	0%
33	O=C(c1cnccn1)N1CCN(C/C=C/c2ccccc2)CC1	>57	-12%
34	CCOC(=O)N1CCN(C(=O)CCn2nc(-c3ccccc3)ccc2=O)CC1	>57	7%
35	CCOC(=O)CCn1c2nc(C)cc(C)c2c(=O)n1-c1ccccc1	>57	10%
36	CCOC(=O)C(C)Oc1ccc(C2NC(=O)NC(C)=C2C(C)=O)cc1Br (centres undefined)	>57	18%
37	Cc1nc(N2C(=O)C(=O)/C(=C(/O)c3ccccc3)C2c2ccco2)sc1C (centres undefined)	>57	?
38	CS(=O)(=O)c1ccc(-c2cc(Br)sc2-c2ccc(F)cc2)cc1	>57	?
39	CCn1c(CNc2ccc(F)cc2)nnc1SCCN1CCCCC1	>57	?
40	Cc1c(C(=O)N2CCCC2)sc(NC(=O)c2cccs2)c1C#N	>57	5%
41	COc1ccc(OCc2nn3c(Cn4cnc5ccccc54)nnc3s2)cc1	>57	?
42	Cn1c(=O)cc(SCC(=O)NCCN2CCN(c3ccccc3F)CC2)c2cc(Cl)ccc21	>57	-29%
43	O=C(Nc1ccc(-c2nnco2)cc1)c1ccccc1	>57	5%
44	CCc1c(C)nc(N2CCOCC2)[nH]c1=O	>57	6%
45	O=C(O)C1CCCCC1C(=O)NCCCCc1ccccc1 (centres undefined)	>57	11%
46	CN1Cc2ccccc2[C@@H]2c3cccc4[nH]cc(c34)C[C@H]21	>57	?
47	Cc1cc(C)nc(SCSc2nc(C)cc(C)n2)n1	>57	-9%
48	Cc1ccc2c(C(=O)CN3CCCC3)c(C)[nH]c2c1	>57	?
49	CN(C)c1ncc2nc(-c3ccc(F)cc3)c(=O)n(Cc3cccs3)c2n1	>57	-13%
50	CCc1nnc(NC(=O)c2cc3ccccc3oc2=O)s1	>57	-16%

The list goes on.
item	structure	Prx2 Sm inh	LT uptake inh
51	O=C(Nc1ccccc1C(=O)N1CCOCC1)C1CC(=O)N(C2CCCC2)C1 (centres undefined)	>57	0%
52	CCOc1ccc(C2/C(=C(/O)c3ccc(Cl)cc3)C(=O)C(=O)N2CCCN(C)C)cc1OC (centres undefined)	>57	-1%
53	CCCOc1ccc(C(=O)Nc2ccc(N(C)C)cc2)cc1	nt	-16%
54	N#Cc1ccsc1NC(=O)CSc1ncnc2ccccc12	>57	-13%
55	CCc1nnc(NC(=O)CSc2ncc(-c3ccccc3)n2C)s1	>57	-14%
56	O=C(CSc1nnc(CNc2ccc(F)cc2)n1Cc1ccccc1)NCc1ccco1	>57	-6%
57	O=C(Cn1c(CC(=O)N2CCCC2)nc2ccccc21)NCc1ccccc1	>57	-19%
58	CCOc1cccc(-c2nnc(SCC(=O)Nc3ccc(OC)c(OC)c3)n2N)c1	>57	-2%
59	Cc1cc(/N=C/N(C)C)on1	>57	-4%
60	COCCOC(=O)C1=C(C)N=c2s/c(=C\c3cccs3)c(=O)n2C1c1cccs1 (centres undefined)	>57	?
61	CCc1ccc(NC(=O)N(CCN2CCOCC2)C2CCN(C(C)=O)CC2)cc1	>57	4%
62	Cc1cccn2c(=O)c(C=Nc3ccccc3)c(NCc3ccco3)nc12	>57	-1%
63	O=c1[nH]c(=O)n(CCC2=CCCCC2)c(O)c1C=NC1CCN(Cc2ccccc2)CC1	>57	7%
64	CC(C)COC(=O)c1cc(=O)[nH]c2ccccc12	nt	-1%
65	CC(=O)Nc1ccc(S(=O)(=O)N2CCSC2C(=O)O)cc1 (centres undefined)	>57	3%
66	Cc1cccc(CNc2ccnc(-c3cccc(C#N)c3)n2)c1	>57	5µM*
67	CC1=Nn2c(nnc2-c2ccco2)SC1	>57	2%
68	O=C(COc1ccc(-c2nnco2)cc1)N1CCN(S(=O)(=O)c2ccc3ccccc3c2)CC1	>57	0%
69	O=C(O)c1ccc(Nc2ccnc3cc(Cl)ccc23)cc1O	>57	-5%[8 µM]
70	COc1nc(C)ccc1-c1noc(-c2ccco2)n1	>57	8%
71	CC(c1ccccc1F)n1cc(C(=O)NCCc2ccco2)nn1 (centres undefined)	>57	-8%
72	CCOC(=O)c1csc(NC(=O)CSc2nnnn2-c2ccc(OC)cc2)n1	>57	-5%
73	COc1ccc(C(=O)c2ccc(N(C)C)cc2)c(OC)c1	>57	?
74	CCOC(=O)C1CCCN(c2c(N3CCN(C4CCCCC4)CC3)c(=O)c2=O)C1 (centres undefined)	>57	-12%
75	COc1ccc(N2CCN(c3cc(=O)n(Cc4ccc(F)cc4)c(=O)[nH]3)CC2)cc1	>57	-4%

Continued.
item	structure	Prx2 Sm inh	LT uptake inh
76	COC(=O)c1[nH]c2c(c1C)C(=O)CC(c1cccs1)C2 (centres undefined)	>57	?
77	CCCS(=O)(=O)N1CCC(C(=O)NCc2ccccc2Cl)CC1	>57	11%
78	Cn1cccc1Cc1nnc(SCC(=O)NCC2CCCO2)n1-c1ccc(F)cc1 (centres undefined)	>57	1%
79	O=C(c1cccc(Br)c1)N1CCN(C(=O)N2CCCCC2)CC1	>57	-1%
80	O=C(NCCCN1CCN(c2ccccc2F)CC1)C1CCN(S(=O)(=O)c2cccs2)CC1	>57	-15%
81	CCC(C)(C)n1nnnc1C(c1cccc(C#N)c1)N1CCN(c2cc(C)ccc2C)CC1 (centres undefined)	>57	2%
82	NC(=O)CSC1=Nc2ccccc2C2=NC(CCC(=O)NCc3ccc(F)cc3)C(=O)N12 (centres undefined)	>57	6%
83	Cn1cccc1C(=O)N1CCC2(CC1)CN(c1cccc(-c3ccccc3)c1)C2	>57	?
84	CN(C)S(=O)(=O)Nc1ccccn1	>57	-7%[8 µM]
85	CCn1c2ccccc2c2nnc(SCC(=O)OCN3C(=O)c4ccccc4C3=O)nc21	nt	-3%
86	C=C(C)CSc1nnc(-c2cccc(Cl)c2)n1N	>57	-15%
87	COc1ccc(N(C(=O)Cn2nnc3ccccc32)C(C(=O)NCc2ccco2)c2cccnc2)cc1 (centres undefined)	>57	-35%
88	O=C(Nc1ccc(N2CCCC2)c(Cl)c1)c1ccco1	nt	?
89	COc1ccc(C2=NCC(=O)N(CC(=O)NCc3ccco3)c3sc4c(c32)CCCC4)cc1	>57	?
90	N[C@H](C(=O)O)c1cc(O)cc(O)c1	>57&>57&>57	-7%&0%&3%
91	CNC(=O)CN(c1ccc(C(C)C)cc1)S(C)(=O)=O	nt	-6%
92	CCn1c(=O)c(C)nn2c3ccccc3nc12	>57	-5%
93	CSc1ncccc1C(=O)OCC(=O)c1cc2ccccc2o1	>57	6%
94	COc1ccc2nc(SCC(=O)NC(C)(C)C)[nH]c2c1	>57	1%
95	C=CCN1C(=Nc2cccnc2)SCC1(O)c1ccc(C)cc1 (centres undefined)	>57	?
96	CCSc1ccccc1C(=O)NCc1ccc2c(c1)OCO2	>57	0%
97	Cc1ccc2nc(NC(=O)CN(C)S(=O)(=O)c3ccc(Br)s3)sc2c1	>57	5µM*
98	COC(=O)c1ccc(NC(=O)CN(C)S(=O)(=O)c2ccc(OC)c(C)c2)cc1	>57	-3%
99	COc1ccc2cnn(Cc3ccccc3)c(=O)c2c1OC	>57	?
100	O=c1c(-c2ccc(Cl)cc2)nc2cncnc2n1Cc1ccccc1Cl	>57	17%

(next part)
item	structure	Prx2 Sm inh	LT uptake inh
101	COc1ccc(C(=O)Nc2ccncc2)cc1OC	nt	4%
102	Cc1cc(C)n(-c2nc3ccccc3nc2N2CCN(C(=O)c3ccccc3)CC2)n1	>57	?
103	CNS(=O)(=O)c1cccc(C(=O)OC2CCCCC2=O)c1 (centres undefined)	>57	?
104	COCCCn1c(SCC(=O)N(C)C)nnc1-c1ccccc1	>57	0%
105	Cc1cccc(NC(=O)Cn2cccc2)c1	>57	6%
106	Cc1cc(C)c2c(=O)[nH]c(SCC(=O)N3CCCCC3)nc2n1	>57	1%
107	CC(NC(=O)c1ccccc1Cl)C(=O)O (centres undefined)	nt	-2%
108	CO[C@H]1COC(=O)[C@@H](Cc2ccccc2)NC(=O)[C@@H](C)COC(=O)C/C=C\[C@@H]1C	nt	-5%[8 µM]
109	O=C(c1ccccc1Cl)N1CCC(c2nc3c(nnn3Cc3ccco3)c(=O)[nH]2)CC1	>57	?
110	CCCN1CCN(C(=O)Cn2c(=O)oc3cc(S(=O)(=O)NCc4ccccc4)ccc32)CC1	>57	-10%
111	O=C(c1ccccc1)c1ccc(OCC(O)CN2CCCCC2)cc1 (centres undefined)	>57	-7%
112	Fc1ccc(Nc2ccnc(-c3ccccc3C(F)(F)F)n2)cc1	>57	-12%
113	CCS(=O)(=O)c1ccc(O)c(NC(=O)c2cc(OC)c(OC)c(OC)c2)c1	nt	21%
114	CN(C)c1ccc(C2NCCS2)cc1 (centres undefined)	>57	-6%
115	O=C(CCn1nnc2ccccc21)Nc1nnc(Cc2ccccc2)s1	>57	-10%
116	COCCCNC(=O)CSc1nc2ccccc2c(=O)n1CCCC(=O)NCC1CCCO1 (centres undefined)	>57	6%
117	COC(=O)c1cc2occc2n1Cc1c(F)cccc1Cl	>57	?
118	Cc1ccc(C)c(N2CC(=O)N(c3cc(C)ccc3C)CC2=O)c1	>57	3%
119	COCCn1c(=O)c(-c2ccc(F)cc2)nc2cnc(Oc3ccccc3)nc21	>57	-4%
120	CCOC(=O)C1CCCN(C(=O)c2cc3c(C)nc4ccccc4c3o2)C1 (centres undefined)	>57	0%
121	CCC(C(=O)NC1CCCCC1)N(CC1CCCO1)C(=O)CNS(=O)(=O)c1ccc(OC)cc1 (centres undefined)	>57	17%
